Compound activity (PubChem)
CtBP-E1A inh = inhibitors of CtBP/E1A interaction | AlphaScreen GST-E1A/His-CtBP binding, 1536-well; stronger effect = lower value; control for the full effect not named in the record | AID 651724 | activity change, % (no concentration beside the values) | 340,000 tested, 0.49% active; in the data active means activity change below about -65%; inconclusive means about -30% to -65%; inactive means above about -30%; also: % is scaled to controls: 0 for no effect and ±100 for the full control effect; compound concentration not given in the record
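In 5 uL wells, 23 nL compound meets equimolar GST-E1A and His-CtBP (5X stock 125 nM each) for 2 h, 37 °C. Beads (5X, 50 ug/mL) then 1 h, 37 °C, dark.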
PINK1 expr mod = changes PINK1 expression; PINK1 immunofluorescence, high-content cytometry, 24 h; Potency, µM (series often up to 76.6 µM), without a hit: top-dose activation (PINK1 increase), most hits filed as activators; 410,000 tested, 0.2% active; AID 624263; active = well fitted activation curve with a large enough effect; inconclusive = small, poorly fitted or top-dose-only effect; inactive = flat fitted curve, though single readings scatter; cell line not stated here;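 also: potency is read from the fitted curve at half-maximal effect; % of control where 0% means no effect; nearly all actives have a fitted effect of over 65% in size; a mitochondrial uncoupler was the plate control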
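Measures PINK1 amount and localization on or inside mitochondria by immunofluorescence. Stable cells get compounds at 5 concentrations for 24 hours before fixation and staining; CCCP controls included.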
Six1-Eya2 blk = blocks human Six1 binding to Eya2; Q15475+O00167; AlphaScreen GST-Six1/His-Eya2 binding, biochemical; stronger effect = lower value; control for the full effect not named in the record; activity change, % (no concentration beside the values); 360,000 tested, 0.56% active; in the data active = activity change below about -65%; inconclusive = about -30% to -65%; inactive = above about -30%; also: % is scaled to controls: 0 for no effect and ±100 for the full control effect; compound concentration not given in the record
Target sequence (O00167 whole entry, looked up): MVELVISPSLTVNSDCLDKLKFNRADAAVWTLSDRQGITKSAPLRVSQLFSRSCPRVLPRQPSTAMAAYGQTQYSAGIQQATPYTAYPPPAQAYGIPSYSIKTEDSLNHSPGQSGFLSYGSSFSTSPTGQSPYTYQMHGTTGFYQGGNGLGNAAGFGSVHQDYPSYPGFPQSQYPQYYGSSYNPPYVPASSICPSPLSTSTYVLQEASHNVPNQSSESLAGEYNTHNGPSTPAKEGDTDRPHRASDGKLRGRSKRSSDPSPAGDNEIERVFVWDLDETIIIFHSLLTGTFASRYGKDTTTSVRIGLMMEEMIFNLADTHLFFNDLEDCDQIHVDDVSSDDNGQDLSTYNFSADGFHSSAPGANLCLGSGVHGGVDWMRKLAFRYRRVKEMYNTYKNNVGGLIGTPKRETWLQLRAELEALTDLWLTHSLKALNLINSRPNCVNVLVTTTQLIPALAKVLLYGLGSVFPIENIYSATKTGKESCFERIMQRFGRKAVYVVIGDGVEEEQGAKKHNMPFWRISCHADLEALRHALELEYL
Target sequence (Q15475 whole entry, looked up): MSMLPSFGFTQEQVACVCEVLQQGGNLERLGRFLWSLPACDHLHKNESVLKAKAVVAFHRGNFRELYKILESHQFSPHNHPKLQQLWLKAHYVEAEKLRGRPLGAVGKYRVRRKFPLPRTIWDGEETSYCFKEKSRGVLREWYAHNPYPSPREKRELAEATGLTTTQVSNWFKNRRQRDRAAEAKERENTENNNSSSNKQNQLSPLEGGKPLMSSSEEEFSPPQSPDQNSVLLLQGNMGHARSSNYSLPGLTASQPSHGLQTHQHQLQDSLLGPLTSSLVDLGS
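Six1/Eya2 binding was read as AlphaScreen signal after compounds were pinned into GST-Six1 plus His-tagged Eya2 (5X stock 250/500 nM) in pH 8.0 Tris/NaCl/TCEP buffer, beads added, then incubated 1 h, 37 C, dark.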
TRPML1 inh = blocks the human TRPML1 channel. 390,000 tested, 0.02% active. Q9GZU1. activity change, negative = inhibition, % (no concentration beside the values). TRPML1-inducible cells, Ca2+ dye fluorescence, FDSS; stronger effect = lower value; inhibition of EC80 agonist-evoked calcium signal; in the data active means activity change below about -50%; inconclusive means about -30% to -50%; inactive means above about -30%;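 also: stimulus is agonist 54-4 at its EC80 concentration; % is scaled to controls: 0 for no effect and ±100 for the full control effect; compound concentration not given in the record; the text of the record puts the active cut at -80%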
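TRPML1-DL cells, Tet-induced overnight (~16 h, 37 °C) at 1,500 cells/well, were loaded with Ca8 no-wash dye plus quencher for 45-90 min at room temperature. Compounds were pinned during FDSS kinetic reading; agonist 54-4 at EC80 (4 uM final) then added.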
D2 agonist = agonists of human D2 dopamine receptor (beta-arrestin); P14416; DiscoveRx PathHunter D2 beta-arrestin, luminescence, 90 min; 100% = 57 uM dopamine signal; activation, % (concentration not given with the values); 360,000 tested, 0.084% active; in the data active = activation above about 40%; inconclusive = about 15% to 40%; inactive = below about 15%; also: compound concentration not given in the record; the text of the record calls up to 30% inactive
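DiscoveRx PathHunter D2 beta-arrestin cells (2,100/well) attached overnight, then compound-stimulated 90 min at 37 C in HBSS/10 mM HEPES/0.1% Tween-20 buffer; beta-galactosidase complementation read by luminescence after 1 h at ambient temperature. Dopamine 57 uM final (EC100) as control.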
TRPML1 ag = human mucolipin-1 channel agonism. Q9GZU1. AID 624414. TRPML1-expressing cells, Ca2+ dye fluorescence, FDSS; host cell line not named in the record; reference of the full effect not given here. activation, % (no concentration beside the values). 410,000 tested, 0.12% active; in the data active = activation above about 50%; inconclusive = about 30% to 50%; inactive = below about 30%; also: 0% is about no effect; the text of the record puts the active cut at 80%
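Kinetic FDSS Ca2+ read in Tet-induced TRPML1-DL cells (ABD Ca8 dye plus quencher, 45-90 min RT loading): baseline, then compound, then 110 s agonist window; EC80 agonist 54-4 at 4uM final added afterwards for a 110 s antagonist window.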
Numbers without * were called inactive; ? = inconclusive; . = no result given; [ ] = remark or other dose. Compounds were not picked by outcome. About 1% of those tested had a hit in this group.

molecule	CtBP-E1A inh	PINK1 expr mod	Six1-Eya2 blk	TRPML1 inh	D2 agonist	TRPML1 ag
O=C1CNC(=O)/C1=C\c1ccc(O)cc1	3	1.8%	4	-12	-3.7	-0.5
O=C(CO/N=C/c1ccc(Cl)cc1Cl)NNC(=O)c1cccc(Cl)c1	6	6.3%	4	6	-2.5	0.6
O=C(N/N=C/c1cc2c(cc1[N+](=O)[O-])OCO2)c1cccnc1	-11	1.3%	0	7	1.4	0.9
O=C(Cn1nnc(-c2ccccc2)n1)NNC(=O)c1cccc([N+](=O)[O-])c1	4	2.2%	0	-5	8.2	-0.7
COc1ccc(C(=O)Oc2ccc(/C=N/NC(=O)c3ccccc3OC)cc2[N+](=O)[O-])cc1	-4	14%	3	3	-4.9	-0.5
C[C@H](CO)N1C[C@H](C)[C@@H](CN(C)C(=O)Nc2ccc3c(c2)OCO3)Oc2ccc(NS(=O)(=O)c3cn(C)cn3)cc2C1=O	7	1.0%	4	-17	-0.6	1.2
N#Cc1ccccc1OCC(=O)OCC(=O)NC1CCS(=O)(=O)C1 (stereo not drawn)	.	0.2%	7	7	-1.0	0.4
COc1ccc(-n2c(C)cc(/C=C3/SC(=O)N(CC(=O)N4CCOCC4)C3=O)c2C)cc1	-3	-0.4%	4	-1	-6.9	-0.6
Cc1ccc(OCC(=O)N(Cc2ccc(N(C)C)cc2)C2CCS(=O)(=O)C2)cc1C (stereo not drawn)	-9	-0.2%	5	-14	-0.9	0.4
O=C(Oc1ccc2ccccc2c1Cl)N1CCCC1	2	2.0%	6	30	-2.5	2.2
CCCc1nc2oc3ccccc3c(=O)c2c(=O)n1-c1ccc(C)cc1	3	5.0%	-1	7	0.4	3.6
CC(C)(C)OC(=O)NCCCC[C@H](NC(=O)c1nc[nH]c1C(=O)N[C@@H](CCCCNC(=O)OC(C)(C)C)C(=O)OC(C)(C)C)C(=O)OC(C)(C)C	-2	1.8%	-2	-17	3.1	-0.1
CCOc1ccc(NC(=O)CCn2c(-c3ccc(F)cc3)cc(C(C)=O)c2C)cc1	.	-1.3%	.	20	.	0.0
O=C(NC1CCCCC1)C(c1ccc(F)cc1)N(Cc1ccco1)C(=O)Cn1nnc2ccccc21 (stereo not drawn)	2	14µM*	-1	20	-1.7	0.7
Cc1ccc(Cl)cc1N1CCN(C(=O)c2cc(S(=O)(=O)N3CCCC3)cn2C)CC1	.	0.8%	.	-2	.	0.3
CCCCN(C(=O)C1CCN(C(=O)c2ccccc2C)CC1)c1c(N)n(CCC)c(=O)[nH]c1=O	-17	0.9%	-2	22	-1.2	0.6
COCCCNC(=O)CNC(=O)c1nn(-c2ccc(OC)cc2OC)c(=O)c2ccccc12	.	2.6%	4	-15	1.9	0.7
CC(C)CNC(=O)COC(=O)CCC(=O)c1ccc(Cl)cc1	2	3.9%	4	?	-7.1	0.0
COC(=O)[C@@]1(Sc2ccccc2)CC(=O)N[C@@H]1c1ccccc1	4	1.6%	1	.	.	-0.3
CCOc1ccc(C2C(C(=O)c3cccs3)=C(O)C(=O)N2Cc2cccnc2)cc1OC (stereo not drawn)	0	1.7%	-5	4	-3.8	-0.6
Cc1[nH]c2c(ccc3cccnc32)c1C	-24	0.0%	-23	13	0.6	1.4
Cc1[nH]c2ccc(-c3nnc(SCC(=O)c4ccc(F)cc4)o3)cc2c1C	-3	.	1	-3	0.3	0.2
CCOC(=O)c1oc2ccccc2c1NC(=O)c1ccc(S(=O)(=O)N(C)C)cc1	14	6.9%[38.3 µM]	5	-13	-2.3	?
CCOC(=O)C1CCCN(c2c(Nc3ccc(OCC)cc3)c(=O)c2=O)C1 (stereo not drawn)	1	2.5%	6	10	-3.1	-0.5
CCN(CC)S(=O)(=O)c1cc(C(=O)Nc2ccncc2)ccc1Cl	5	.	-8	7	3.8	-0.2

Molecules from the list above containing a furan ring, fused or not:
molecule	CtBP-E1A inh	PINK1 expr mod	Six1-Eya2 blk	TRPML1 inh	D2 agonist	TRPML1 ag
O=C(NC1CCCCC1)C(c1ccc(F)cc1)N(Cc1ccco1)C(=O)Cn1nnc2ccccc21 (stereo not drawn)	2	14µM*	-1	20	-1.7	0.7
CCOC(=O)c1oc2ccccc2c1NC(=O)c1ccc(S(=O)(=O)N(C)C)cc1	14	6.9%[38.3 µM]	5	-13	-2.3	?

Structures listed so far shown as hits in PINK1 expr mod:
Compound | CtBP-E1A inh | PINK1 expr mod | Six1-Eya2 blk | TRPML1 inh | D2 agonist
O=C(NC1CCCCC1)C(c1ccc(F)cc1)N(Cc1ccco1)C(=O)Cn1nnc2ccccc21 (stereo not drawn) | 2 | 14µM* | -1 | 20 | -1.7

(list continues)
molecule	CtBP-E1A inh	PINK1 expr mod	Six1-Eya2 blk	TRPML1 inh	D2 agonist	TRPML1 ag
CC1CN(Cc2cc(=O)oc3cc(O)ccc23)CC(C)O1 (stereo not drawn)	5	-2.8%	2	-8	7.7	0.3
O=C(COC(=O)CC(NC(=O)c1ccccc1Cl)c1ccccc1)Nc1cccc(F)c1 (stereo not drawn)	7	1.6%	1	15	0.6	1.1
COC(=O)c1cccc(C(=O)Nc2ccc(C)cc2)n1	0	1.6%	1	-1	0.0	0.4
CCOc1ccc2ccccc2c1/C=N/NC(=O)c1ccc(C)nc1	.	1.7%	-1	6	-4.6	3.7
C=CCNC(=O)c1ccc(OC)cc1	.	1.8%	-16	4	14	-0.2
CCCC(=NCCc1c(C)[nH]c2ccccc12)C1=C(O)CC(c2ccccc2)CC1=O (stereo not drawn)	0	17%	?	27	-8.3	4.6
COc1cccc(-c2nc(-c3ccc(NC(=O)c4cccnc4)cc3)no2)c1	8	5.1%	2	-24	-2.2	-0.6
Fc1ccc(-c2csc(N3CCSCC3)n2)cc1	-17	3.7%	8	14	-4.1	6.0
O=C(NCc1cccc(F)c1)c1ccc2nc(CCc3ccccc3)oc2c1	.	-0.2%	.	3	.	0.4
CC(C)C(C)NC(=O)CN1C(=O)NC(c2ccccc2)(c2ccccc2)C1=O (stereo not drawn)	4	0.6%	3	14	-1.3	0.7
CCCCC1C2=C(CC(C)(C)CC2=O)OC2=C1C(=O)CC(C)(C)C2	13	-0.3%	4	22	1.7	2.3
C/C(=N/Nc1ncc(C(F)(F)F)cc1Cl)c1ccncc1	6	-2.7%	-11	46	1.1	0.3
COC(=O)c1c(-c2cccs2)csc1NC(=O)c1cc(OC)c(OC)c(OC)c1	.	2.4%	.	10	.	0.4
CN(Cc1ccccc1)C(=O)COc1ccc2ccccc2c1	.	0.9%	6	-1	-4.7	-1.3
COc1ccc(-c2cn3nc(N4CCC(C(=O)Nc5cc(Cl)ccc5C)CC4)sc3n2)cc1	.	0.3%	.	17	.	1.5
O=C(Nc1ccc(Cl)c(Cl)c1)C1CC(=O)N(c2ccc(Br)cc2)C1 (stereo not drawn)	10	6.7%[38.3 µM]	1	41	0.8	1.0
Cc1[nH]n(C(N)=S)c(=O)c1N=Nc1cccc(C(F)(F)F)c1	-2	1.0%	-1	10	-3.8	-1.7
Cc1cc(C)nc(N2CCC(C(=O)Nc3ccc4c(c3)OCCO4)CC2)n1	-2	5.1%	0	-6	-3.2	-0.8
CCOC(=O)c1[nH]c2c(c1Cc1ccccc1OC)C(=O)CC(c1ccc(OCC)cc1)C2 (stereo not drawn)	.	2.5%	.	32	.	2.2
COc1cccc(C(NC(C)=O)c2nc(-c3ccoc3)cs2)c1 (stereo not drawn)	-8	-0.7%	12	.	7.0	-0.2
Cc1ccccc1NS(=O)(=O)c1ccc2oc(=O)ccc2c1	8	1.8%	3	-7	-2.0	-0.1
Cc1nc2[nH]c(=S)[nH]c2c(=O)[nH]1	-1	4.0%	3	-16	8.8	-0.8
Cc1ccc(NC(=O)CSc2nnc(-c3cnccn3)n2Cc2ccco2)cc1C	-10	-1.9%	-3	13	-1.5	3.6
Cc1ccc(NC(=O)C2(N(C(=O)Cn3nnnc3N)c3ccc(C)cc3)CCCCC2)cc1	-7	0.4%	-4	12	-4.1	1.0
CCOc1ccc2nc(NCCNS(=O)(=O)c3ccccc3)c(C#N)cc2c1	-2	-4.3%	6	-1	1.4	-0.4

The list continues.
molecule	CtBP-E1A inh	PINK1 expr mod	Six1-Eya2 blk	TRPML1 inh	D2 agonist	TRPML1 ag
O=C(CSc1ccc(F)cc1)Nc1ccc(Br)cc1	.	5.7%	1	11	0.7	1.0
COc1ccc(CNS(=O)(=O)c2cn(C)c(=O)n(C)c2=O)cc1	0	-1.3%	7	-7	-1.8	0.2
CCOC(=O)c1sc2nc(CC(=O)OC)nc(NCc3ccc(F)cc3)c2c1C	1	0.6%[38.3 µM]	5	12	-0.2	0.6
CC1CCCCC1NC(=O)CCS(=O)(=O)c1ccc(Cl)cc1 (stereo not drawn)	.	2.2%	-1	31	4.4	-0.4
O=C(CSCc1cc(=O)n2ccsc2n1)Nc1ccc(F)cc1	4	1.3%	-1	13	12	-0.1
Cc1c(Cl)cccc1NC(=O)C(=O)NCCc1csc(-c2cccc(F)c2)n1	.	0.4%	.	-12	.	0.5
CC(=O)Nc1ccc(OCC(O)Cn2cccn2)cc1 (stereo not drawn)	.	3.1%	-11	.	3.4	.
COCCn1c(N)c(S(=O)(=O)c2cccs2)c2nc3ccccc3nc21	7	-1.0%[38.3 µM]	-13	0	1.0	0.4
CSc1ccccc1NC(=O)c1ccc(N2CCCC2=O)cc1	-3	1.5%	0	-14	-0.9	3.7
CCc1ccccc1Nc1cc(C(=O)NCc2ccc(C)cc2)c2ccccc2n1	.	1.6%	.	17	.	2.3
COc1ccccc1CNCC(=O)Nc1ccc(N(C)C)cc1	.	2.5%	-17	-13	-0.3	1.3
COc1cccc(-n2cnnn2)c1	0	-3.0%	1	12	-1.0	3.2
CCOC(=O)Cn1c(=O)c(-c2ccccc2NC)nc2ccccc21	-8	-0.4%	-15	-6	-2.8	1.9
COC(=O)Cc1ccc(NC(=S)Nc2cccc(C)n2)cc1	-2	1.1%	-5	10	3.3	0.0
C[C@H](NC(=O)c1nc[nH]c1C(=O)NCc1ccccc1)C(=O)OCc1ccccc1	0	3.6%	-5	27	1.6	3.3
COc1cccc(C(C)(O)c2nc(-c3cnc4ccccc4c3)cs2)c1 (stereo not drawn)	-3	1.3%	-4	.	11	0.0
CC(=O)c1sc(C(=O)O)c(-c2ccco2)c1-c1ccco1	.	0.0%	-7	-8	0.3	-0.6
CCN1C[C@@H]2[C@@H]3C(=O)N(Cc4ccccc4)C(=O)[C@@H]3[C@](CC)(C1=O)N2C(=O)c1ccc(C(F)(F)F)cc1	7	1.5%	0	-12	-2.1	-0.7
Cc1csc(=Nc2c(C)n(C)n(-c3ccccc3)c2=O)n1-c1ccccc1	5	-0.7%	-5	-4	0.3	3.3
CCc1c(C)sc2nc3c(C(=O)N4CCOCC4)cc(C(=O)c4cc(F)ccc4O)cn3c(=O)c12	-11	0.5%	-11	-4	7.8	0.9
